KCNQ2 block = KCNQ2 potassium channel inhibitors, primary screen, cell-based, CHO-K1, FluxOR thallium flux, B-score (AID 2156) | actives 1.1% (n = 310,000) | B-score at 10 µM | 20 min; stronger effect = lower value; only compounds with negative scores are shown here; some inactives read as strong as hits | O88943;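 active = fluorescence ratio B-score at most minus 3 library SDs, with starting brightness B-score within 2 library SDs, cut at about -5.5 in these data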
Target sequence (O88943 whole entry, looked up): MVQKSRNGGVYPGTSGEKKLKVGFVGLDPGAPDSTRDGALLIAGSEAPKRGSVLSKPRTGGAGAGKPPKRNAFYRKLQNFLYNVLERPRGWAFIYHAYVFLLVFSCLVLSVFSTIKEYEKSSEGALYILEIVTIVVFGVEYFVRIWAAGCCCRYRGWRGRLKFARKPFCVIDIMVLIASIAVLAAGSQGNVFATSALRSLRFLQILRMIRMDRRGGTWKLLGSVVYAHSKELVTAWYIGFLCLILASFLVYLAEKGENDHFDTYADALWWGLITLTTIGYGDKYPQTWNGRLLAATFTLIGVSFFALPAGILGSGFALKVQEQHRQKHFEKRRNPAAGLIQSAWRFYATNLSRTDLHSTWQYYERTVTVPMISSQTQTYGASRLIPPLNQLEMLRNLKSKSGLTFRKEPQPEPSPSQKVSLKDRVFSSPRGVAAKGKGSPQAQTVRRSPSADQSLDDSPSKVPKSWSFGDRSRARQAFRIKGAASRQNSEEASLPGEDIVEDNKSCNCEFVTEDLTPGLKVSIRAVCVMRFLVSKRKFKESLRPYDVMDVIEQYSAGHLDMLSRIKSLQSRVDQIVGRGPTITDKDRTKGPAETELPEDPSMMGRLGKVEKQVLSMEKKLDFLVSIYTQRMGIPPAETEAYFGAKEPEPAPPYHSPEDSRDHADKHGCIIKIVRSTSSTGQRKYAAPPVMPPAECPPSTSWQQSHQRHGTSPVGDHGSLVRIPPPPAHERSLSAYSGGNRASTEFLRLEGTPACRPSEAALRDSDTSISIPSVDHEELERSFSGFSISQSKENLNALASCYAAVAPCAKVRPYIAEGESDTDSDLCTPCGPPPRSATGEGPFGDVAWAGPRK
KCNQ2 block baseline = also measured in KCNQ2 block; calls as there; B-score; measured here: initial fluorescence intensity artifact check;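 brightness before thallium and not channel activity; 0 = typical well and far values either way flag optical interference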
* hit, by the source's call; i = inactive. Not all compounds are listed. The share of hits here may be higher or lower than overall.

A first look, 2 compounds:
#	structure	KCNQ2 block	KCNQ2 block baseline
1	CCOc1cc(/C=N/NC(=O)c2nnn(-c3nonc3N)c2C)ccc1OCc1ccc(F)cc1	i	-0.28
2	CCOC(=O)C1CCN(c2c(Nc3cc(C)cc(C)c3)c(=O)c2=O)CC1	i	1.4

The list itself (from the top)
#	structure	KCNQ2 block	KCNQ2 block baseline
1	CCOc1cc(/C=N/NC(=O)c2nnn(-c3nonc3N)c2C)ccc1OCc1ccc(F)cc1	i	-0.28
2	CCOC(=O)C1CCN(c2c(Nc3cc(C)cc(C)c3)c(=O)c2=O)CC1	i	1.4
3	COc1cc2c(cc1OC)CN(C(=O)COc1ccc(C)c(C)c1)CC2	i	-1
4	S=C1NCCOCCNC(=S)NCCOCCOCCN1	i	0.15
5	O=C1c2ccccc2C(=O)N1c1cc([N+](=O)[O-])ccn1	i	-0.01
6	Clc1ccc(OCCCn2ccnc2)c(Br)c1	i	2.6
7	Cc1cccc([C@@H]2[C@@H]3C(=O)N(Cc4ccccc4)C(=O)[C@@H]3[C@]3(Cc4ccccc4)C(=O)N(c4ccc(C(F)(F)F)cc4)C(=O)N23)c1	i	3.1
8	O=C(CCCc1ccccc1)NCc1ccc(Cl)cc1	i	-0.15
9	CCN(CC)/C(Sc1ccccc1)=C(/C(Cl)=C(Cl)Cl)[N+](=O)[O-]	i	-0.9
10	CCCCCn1c(CNC(=O)CC)nc2ccccc21	i	1.4
11	O=C(COC(=O)CNS(=O)(=O)c1ccc(Br)cc1Cl)NC1CC1	i	0.35
12	CC(=O)Oc1oc(-c2ccccc2)nc1/C=N/c1ccccn1	i	-0.53
13	O=C(NC1=NCCS1)c1csc2ccccc12	i	0.38
14	COC(=O)c1cccc(NC(=O)c2ccc3c(c2)C(=O)N(Cc2cccnc2)C3=O)c1C	i	-0.5
15	O=C(CN1C(=O)S/C(=C\c2cc(Cl)c(O)c(Cl)c2)C1=O)Nc1ccccc1	i	0.02
16	Nc1ncnc2nc(SCCC(=O)O)[nH]c12	i	1.9
17	O=C(O)CCNC(=O)c1ccc(NC(=O)C(c2ccccc2)c2ccccc2)cc1	i	-0.06
18	CCCCC(=O)NC(c1ccco1)c1cc(Cl)c2cccnc2c1O (configuration not stated)	i	0.36
19	COc1ccc(Cc2n[nH]c(=S)o2)cc1	i	-1.4
20	Cc1ccc(N(C(=O)c2ccc(S(=O)(=O)N3CCOCC3)cc2)C2C=CS(=O)(=O)C2)cc1 (configuration not stated)	i	0.01
21	COc1ccc2nc3cc(Cl)ccc3c(C#N)c2c1	i	-1.6
22	CNC(=S)N1N=C(c2ccccc2)CC1c1ccccc1Cl (configuration not stated)	i	0.51
23	O=C(CN1CCN(Cc2ccc(F)cc2Cl)C1=O)NCCc1ccccc1	i	-0.33
24	C/C(=N/NC(=O)c1ccccn1)c1ccco1	i	-2.5

Laid out differently: two of the compounds above
14: COC(=O)c1cccc(NC(=O)c2ccc3c(c2)C(=O)N(Cc2cccnc2)C3=O)c1C
- KCNQ2 block = i
- KCNQ2 block baseline = -0.5

15: O=C(CN1C(=O)S/C(=C\c2cc(Cl)c(O)c(Cl)c2)C1=O)Nc1ccccc1
- KCNQ2 block = i
- KCNQ2 block baseline = 0.02

Remaining list, next part.
#	structure	KCNQ2 block	KCNQ2 block baseline
25	O=C(NC(=O)N1CCN(C(c2ccccc2)c2ccccc2)CC1)c1ccccc1	i	-0.43
26	Cn1cc(CC(=O)NCCN2CCOCC2)c2ccccc21	i	0.69
27	CC(=O)Nc1ccc(Nc2nnc(-c3ccc(C)c(S(=O)(=O)NCCO)c3)c3ccccc23)cc1	i	-0.32
28	S=C(NCCc1ccccc1)N/N=C/c1c(Cl)cccc1Cl	i	0.02
29	COc1ccccc1NC(=O)CN1CCN(CC(=O)Nc2ccc(S(N)(=O)=O)cc2)CC1	i	0.57
30	COc1ccc(OCc2csc(N)n2)cc1	i	0.87
31	Cc1occc1-c1nnc(SCC(=O)NCc2ccco2)n1CC(C)C	i	0.88
32	O=C(O)COc1ccccc1/C=N/NC(=O)CN1CCN(Cc2ccc(Cl)cc2)CC1	i	0.81
33	CC(C)(c1ccccc1)c1ccc(OCCn2cnc3ccccc3c2=O)cc1	-7.4*	-0.95*
34	Cc1ccc2c(Cl)c(C(=O)Nc3ccc4c(c3)OCO4)sc2c1	i	-0.27
35	O=C(NC1CCCCC1)C(c1ccco1)N(Cc1ccco1)C(=O)c1ccco1 (configuration not stated)	i	2.1
36	C=CCn1c(SCC(=O)Nc2cc(C)on2)nc2c([nH]c3ccccc32)c1=O	i	1.2
37	COc1ccc(-n2nnnc2SCC(=O)N2C(C)CCCC2C)c(OC)c1 (configuration not stated)	i	1.9
38	O=C(O)c1ccccc1NS(=O)(=O)c1ccc2c(c1)OCCO2	i	0.06
39	Cc1cc(N/N=C\c2ccccc2)nc(-c2ccccc2O)n1	i	-1.1
40	O=C(NCc1ccncc1)Nc1ccc(Cl)cc1Cl	i	-0.29
41	CC1(C)Cc2nc(-c3ccccc3)nc(NNC(=O)c3ccco3)c2CO1	i	0.5
42	COc1cc(O)oc1C=Nc1ccc(Cl)cc1Cl	i	-0.02
43	N#CCCNCC1(c2ccccc2)CCCC1	i	3.1
44	CC(=O)Nc1sc(/C(C#N)=C\c2cccc(Cl)c2)nc1-c1ccc(C)cc1	i	26
45	Cc1cccc(N(C)S(=O)(=O)c2c(C)[nH]c(C)c2C(=O)N2CCCC2)c1	i	-0.35
46	COc1ccc(C(CNc2ccc(S(=O)(=O)N3CCCC3)cc2[N+](=O)[O-])N2CCCC2)cc1 (configuration not stated)	i	0.84
47	COc1ccc(N2C(=O)CC(Sc3n[nH]c(-c4cccc(C)c4)n3)C2=O)cc1 (configuration not stated)	i	-1.9
48	COc1ccc(-c2nc(N)sc2C2(O)C(=O)Nc3c(Br)cc(F)cc32)cc1OC (configuration not stated)	i	-0.7
49	Cc1ccc(S(=O)(=O)NCCCC(=O)N2CCC(C)CC2)cc1	i	-1.7
50	CN(C)C(=O)C(=O)c1cccn1-c1cccc(Cl)c1C#N	i	1.1
51	CCN(Cc1ccccc1)c1ccc(N=Nc2nn(C)c(C)c2[N+](=O)[O-])cc1	i	0.59
52	CC1=C(C(=O)Nc2ccccn2)C(c2cccnc2)n2nnnc2N1 (configuration not stated)	i	-0.68
53	Nc1ccc(/C=C/C(=O)c2cccs2)cc1	-6.9*	3.4*
54	O=c1cc(-c2ccc(Cl)c(Cl)c2)[nH][nH]1	i	0.76
55	CCOC(=O)c1ccc(Cl)c(NC(=O)c2ccc(-c3ccccc3)cc2)c1	i	1.7
56	COc1ccc(S(=O)(=O)N(C)CC(=O)NCCc2ccccc2)cc1OC	i	1.8
57	COc1ccc(NS(=O)(=O)c2cc(NC(=O)c3cccnc3Cl)ccc2N2CCCC2)cc1	i	0.16
58	OC(COc1ccccc1)CN1CCN(c2ncccn2)CC1 (configuration not stated)	i	-0.24
59	CCNc1nc(C23CC4CC(CC(C4)C2)C3)cs1	i	-0.64
60	O=C(NCc1ccccc1)c1cc2nc(C3CC3)cc(C(F)(F)F)n2n1	i	0.3
61	O=C1C2CC=CCC2C(=O)N1c1ncn[nH]1 (configuration not stated)	i	2.4
62	COC(CN(C(=O)CCl)C(C(=O)NC1CCCCC1)c1ccc(Cl)cc1)OC (configuration not stated)	i	-1.1
63	CS(=O)(=O)c1cnc(-c2ccccc2)nc1-c1ccccc1Cl	i	-2.7
64	O=S1(=O)CCOC[C@H](Cc2ccccc2)N1Cc1cccc(C(F)(F)F)c1	i	-1.5
65	COc1ccc(-c2csc(NC(=O)c3ccc(S(=O)(=O)N4CCc5ccccc5C4)cc3)n2)cc1	i	-1.1
66	COc1cc(C(=O)NC(=S)Nc2csc(-c3ccc(F)cc3)n2)cc(OC)c1OC	i	-0.59
67	CC(=O)c1cccc(Nc2c3c(nc4ccccc24)CCC3)c1	i	-1.4
68	COc1ccc(C(=O)CNc2ccccc2Br)cc1	i	0.46
69	NNC(=O)c1ccc2c(c1)S(=O)(=O)NNC2=O	i	0.74
70	CCCc1nnc(SCC(=O)N2CCCCC2C)n1CC (configuration not stated)	i	0.38
71	CCn1c(C)nc2cc(C(=O)NNS(=O)(=O)c3cc(Br)ccc3Br)ccc21	i	-1.8
72	Cc1cc(Cn2nc(-c3ccccc3)cc2C(=O)NCC2CC2)on1	i	0.04
73	Cc1ccc(SCc2nc3ccccc3n2CC(=O)Nc2ccc(Cl)cc2)cc1	i	0.83
74	COc1ccccc1-c1nnc(SC)n1C	i	0.55
75	COc1cccc(NC(=O)CN2C(=O)CSc3nc(C)cc(C)c32)c1	i	0.28
76	CN(C)c1ccc(C(=O)N=c2sccn2C)cc1[N+](=O)[O-]	i	1.2
77	N#Cc1nc(COc2cccc(Cl)c2)oc1NCCN1CCOCC1	i	-0.01
78	N#C/C(=C\c1cccnc1)C(=O)Nc1cccc2ccccc12	-6.7*	-0.59*
79	O=S(=O)(NC1CCCCC1Nc1ccc(Cl)cc1)c1ccccc1 (configuration not stated)	i	-0.69
80	COc1ccc(-c2csc3ncnc(N4CCN(Cc5ccccc5)CC4)c23)cc1	i	0.11
81	Cc1ccc(C(=O)/C=C/N(C)C)cn1	i	-2.5
82	CCc1ccc(Nc2nc(N)nc(CSc3nc4ccccc4s3)n2)cc1	i	2.2
83	O=C(COc1ccc2ccc(=O)oc2c1)NC1CCN(Cc2ccccc2)CC1	i	-0.5
84	CC1(C)NC(=O)N(Cc2cc(=O)n3ccsc3n2)C1=O	i	0.1

(further entries)
#	structure	KCNQ2 block	KCNQ2 block baseline
85	CSc1sccc1/C=N/NC(=O)c1ccncc1	i	0.56
86	O=C1Nc2ccccc2/C1=C/C(=O)c1cccs1	i	2
87	CCOC(=O)CSc1nnc(CNC(=O)c2cccs2)n1-c1cc(OC)ccc1OC	i	0.38
88	CN(C)C(CNC(=O)CCCc1c[nH]c2ccccc12)c1ccco1 (configuration not stated)	i	-0.71
89	CCOP(C)(=O)C1(C(=O)OCc2ccccc2)CC1 (configuration not stated)	i	0.74
90	CN1CCN(c2ccc(C(F)(F)F)cc2NC(=O)c2ccco2)CC1	i	2.3
91	CC(C1CC1)N(C(=O)c1ccccc1O)c1ccccc1 (configuration not stated)	i	0.01
92	CN1CCN(c2ccccc2NC(=O)c2ccc(-c3ccc(Cl)cc3Cl)o2)CC1	i	0.88
93	CCOc1ccc(C(=O)NCC(=O)OCc2c(F)cccc2Cl)cc1	i	-2.4
94	Cc1ccccc1C(=O)Nc1ccnn1C1CCN(Cc2c(C)n(C)c3ccccc23)CC1	i	0.05
95	O=C(CCC1CCCC1)Nc1ccc(Br)cn1	i	-1.7
96	Cc1ccc(CNC(=O)C2CCCN(S(=O)(=O)c3cccc4nonc34)C2)cc1 (configuration not stated)	i	0.11
97	CN1C(=O)C(=O)/C(=C(/O)c2ccccc2)C1c1ccc(Br)cc1 (configuration not stated)	i	-0.02
98	O=C(c1ccco1)N(Cc1ccc([N+](=O)[O-])cc1)c1ccc(Cl)cc1	i	0.94
99	O=C(O)CC[C@@H](C(=O)O)N1C(=O)c2ccccc2C1=O	i	0.22
100	O=C(/C=C/c1ccco1)OCC(=O)c1cccc([N+](=O)[O-])c1	i	1.4
101	O=C(OCc1cc2ccccc2[nH]c1=O)C1CCCCC1	i	-0.29
102	CC(C)(C)NC(=S)NCc1ccco1	i	-0.32
103	COc1ccc(NC(=O)CSc2nnc(-c3ccncc3)o2)c(OC)c1	i	0.16
104	COc1ccc(-c2cc(=O)oc3c(C)c(OC(C)C(=O)Nc4ccc(CN5CCOCC5)cc4)ccc23)cc1 (configuration not stated)	i	-1.8
105	N#CCCn1nc(-c2ccc(Br)cc2)cc1Nc1ccccc1NC(=O)C(F)(F)F	i	-2.2
106	O=C(CNC(=O)c1ccccn1)N/N=C/c1ccccc1	i	0.59
107	CCOC(=O)N1CCN(Cc2nc(-c3cccs3)no2)CC1	i	0.34
108	CCc1ccc(-c2cc(C)no2)cc1S(=O)(=O)NCc1ccccc1OC	i	0.12
109	O=C(O)c1cc(O)ccc1NC(=O)c1cccc2ccccc12	i	0.11
110	Cc1ccc(NC(=O)c2ccc3nc(N4CCOCC4)sc3c2)c(Cl)c1	i	3.3
111	O=C(c1ccc(=O)n(Cc2ccc(Cl)c(Cl)c2)c1)N1CCOCC1	i	-0.07
112	COC(=O)Cn1cc(C(=O)C(C)(C)C)c2ccccc21	i	2.2
113	Cc1ccc(SCCNC(=S)Nc2ccccc2)cc1	i	-1.1
114	CCSC1(SCC)N=C(N)C2(C#N)C(c3ccccc3)NC(C)=CC12C#N (configuration not stated)	i	0.15
115	O=C1Nc2ccccc2C1=Nc1cccc(Cl)c1	i	1.8
116	Cc1sc2nc(SCC(N)=O)n(C)c(=O)c2c1C	i	-0.28
117	CC(CCc1ccc(O)cc1)NCc1ccc(Br)cc1 (configuration not stated)	i	2.8
118	NCCCS(=O)(=O)O	i	0.69
119	COc1ccc(Cl)cc1CN1C(=O)NC2(CCCCCC2)C1=O	i	2.6
120	CCN(CC)CCCNC(=O)c1csc(Nc2cccc3ccccc23)n1	i	-0.26

2 entries from above, field by field.
50	CN(C)C(=O)C(=O)c1cccn1-c1cccc(Cl)c1C#N
  KCNQ2 block = i; KCNQ2 block baseline = 1.1
51	CCN(Cc1ccccc1)c1ccc(N=Nc2nn(C)c(C)c2[N+](=O)[O-])cc1
  KCNQ2 block = i; KCNQ2 block baseline = 0.59

More structures.
#	structure	KCNQ2 block	KCNQ2 block baseline
121	CSCc1nnc(NC(=O)c2ccc(S(=O)(=O)N3CCCCC3C)cc2)o1 (configuration not stated)	i	-0.53
122	Cn1c2c(c3ccccc31)CC/C2=N\O	i	1.1
123	Cn1ccnc1C(O)c1ccc(OCc2ccccc2)cc1 (configuration not stated)	i	-1.2
124	O=c1sc2ccccc2n1CCCOc1ccccc1	i	-0.29
125	C/C(=N\NC(=O)CC1N=C(Cc2ccccc2)NNC1=O)c1ccccc1 (configuration not stated)	i	0.79
126	CCC(C)(C)NC(=O)C(c1ccc(C)cc1)N(Cc1ccco1)C(=O)Cn1nnc2ccccc21 (configuration not stated)	i	-0.68
